Tgondii IFNg – blocks Toxoplasma gondii growth in the presence of IFN-gamma; Toxoplasma gondii growth in IFN-gamma-treated host cells; hits give low values; reference of the scale not given here; activity change, negative = inhibition, %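 (about 20 µM by stock and volumes)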; 69,000 tested, 3.8% active; AID 1259416;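 active means below -70%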;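 further: host cells are HeLa cells infected with Toxoplasma gondii; parasite growth read as luciferase light; one replicate is shown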
An asterisk follows results filed as active; i = inactive; & = joins results of further samples.

SMILES	Tgondii IFNg
CO[C@@H]1CN(C)C(=O)c2cc(NS(C)(=O)=O)ccc2OC[C@H](C)N(Cc2cncnc2)C[C@H]1C	100.8
C=C(C)COc1ccc(C(=O)N(CC2CCC(=O)N2)C(C)C)cc1 (stereo not given)	-3.5
COC(=O)c1cc(COc2ccc3ccc(=O)oc3c2)c(C)o1	-4.6
COc1ccc2c(cc(C(=O)NCCn3nc(C)c(Cl)c3C)n2C)c1OC	26.8
O=S(=O)(NCCSCc1c(F)cccc1Cl)c1cccc2nonc12	-28.0
COc1cccc(-n2c(=O)c(C(=O)Nc3ccccc3F)c(O)c3cccnc32)c1	40.0
C=CCN1C(=O)CC2C1CCN2C(=O)Cc1ccsc1 (stereo not given)	83.0
COc1ccc(C(=O)Nc2nc3ccccc3c(=O)[nH]2)cc1	253.1
CCc1ccc(Nc2nc(-c3ccc(OC)cc3)nc3ccccc23)cc1	-20.0
COc1ccc(CN2CCOCC3(CC(Cn4cnnc4)CO3)C2)cc1 (stereo not given)	-1.0
COc1ccc2c(c1)OCC(c1cncn1CCCN1CCCCC1)=C2	-35.5
CN1c2ccsc2-c2nc(SCc3ccc(Cl)cc3)ncc2S1(=O)=O	-85.0*
Cc1nn(-c2ccccc2)c(C)c1C(N)=O	175.2
COC(=O)c1ccccc1C(=O)N1CC[C@@H](c2ccc(F)cc2)[C@H](O)C1	-5.7
CC(C)c1nccc(-c2nccn2C(C)c2ccc(-n3cncn3)cc2)n1 (stereo not given)	-11.2
COc1cccc(C(=O)NCCc2csc(-c3ccc(F)cc3)n2)c1OC	13.3
CN(Cc1ccc2nsnc2c1)Cc1cc2n(n1)CCCNC2	-4.5
COC(=O)C1[C@H]2C[C@H]3c4[nH]c5ccccc5c4CCN3C[C@@H]2CC[C@@H]1O (stereo not given in full)	18.3
O=C(CCOc1ccccc1)N1CCCCC1c1ccn[nH]1 (stereo not given)	12.8
Cc1cc(C)c(NC(=O)c2nnn(Cc3nc(-c4ccccc4C)oc3C)c2C)c(C)c1	10.4
OCc1ccc(-c2cc(C3CCN(C/C=C/c4ccccc4)C3)ccn2)cc1 (stereo not given)	-8.5
CS(=O)(=O)CCSc1ncccc1C(=O)Sc1ccc(Cl)cc1Cl	39.0
Cc1cccc(-c2ncc(CNCCc3cn4nc(C)sc4n3)cn2)c1	-1.0
CCCC(=O)N1CCC(N2CCC3(CCOCC3)CC2)CC1	5.3
Cc1ccc(-c2coc(-c3ccc(NC(=O)COc4ccccc4C)cc3)n2)c(C)c1	-2.1
CC(C)Nc1nc2c(cc1C(=O)N(C)C)CCN(S(=O)(=O)C1CC1)CC2	-1.9
CCc1nc(C)c(C(=O)NC(C)c2cn3ccsc3n2)o1 (stereo not given)	-64.8
CN(C)C(=O)N1C[C@H]2CCC[C@]2(COc2ccccn2)C1	i
Cc1oc(C2CCN(S(=O)(=O)Cc3ccccc3)CC2)nc1C(=O)N1CCOCC1	-41.8
COc1cccc(CNC(=O)Cn2c(=O)ccc3cc(S(=O)(=O)N4CCC(C)CC4)ccc32)c1	-80.1*
Cc1nc(CC2CCN(C(=O)c3ccc(N)nc3)CC2)cc(NC2CCCC2)n1	-55.8
O=C(O)c1cc(Oc2ccc([N+](=O)[O-])cc2)cc(Oc2ccc([N+](=O)[O-])cc2)c1	1.2&13.9
Cn1cccc1C(=O)NC[C@@H]1C[C@H]2CN(Cc3ccco3)C[C@@H]2O1	5.1
Cc1nn(CC(=O)NCc2ccc(F)c(Cl)c2)c(=O)c2nc(-c3ccccc3)sc12	-40.1
CC(C)(C(N)=O)c1ccc(-c2cc(N)nc3[nH]ccc23)cc1	19.1
CC1CCN(S(=O)(=O)c2ccc3c(c2)CCC(=O)N3CC(=O)N2CCC3(CC2)OCCO3)CC1	-2.4
COc1ccc(-c2[nH]ncc2CNC(=O)C2(C)CC(c3ccccc3F)=NO2)cc1 (stereo not given)	17.5
O=C1NCC[C@]12CN(CC1CCOCC1)C[C@H]2c1ccccc1	0.6
Cc1ccc(-c2nc(C(=O)N3CCC(C)CC3)c3n2CCCCC3)cc1	-32.0
O=S(=O)(NCC1COc2ccccc2O1)c1cc(Cl)sc1Cl (stereo not given)	-59.7
COc1ccc(CN2C3(CCN(C(=O)N4CCOCC4)C3)c3ccccc3S2(=O)=O)cc1 (stereo not given)	-4.1
COc1cc(N2CCCC3(CCNC3=O)C2)ncn1 (stereo not given)	7.8
CCn1cc(-c2cc(=O)n3[nH]c(-c4ccccc4)c(C)c3n2)c(C)n1	-16.1
CCCCOc1ccc(/C=c2\sc3ncnn3c2=O)cc1OC	-17.7
S=C(Nc1ccccc1)N1N=C2c3ccccc3CCC2C1c1ccc(Cl)cc1 (stereo not given)	-49.9
CC(=O)N(CCC1(c2ccc(C)cc2)CCOC(C(C)C)C1)Cc1ccco1 (stereo not given)	17.2
O=C(NCc1noc(-c2ccccc2)n1)c1coc(-c2ccccc2)n1	5.5
Cc1ccc(NC(=O)CC(=O)N(C)Cc2cc(C)no2)c(C)c1	10.5
COc1ccc(CNC(=O)C2CCN(Cc3cc4n(n3)CCCNC4)CC2)cc1	5.1
O=C(CN1C(=O)CCc2cc(S(=O)(=O)N3CCOCC3)ccc21)NCc1cccs1	3.9
COc1cccc(N2CC(NC(=O)Cn3cc(C)nn3)CC2=O)c1 (stereo not given)	20.6
C=CCNC(=O)c1ccc(-c2ccccc2C(C)=O)cc1	-16.0
COC(=O)[C@@H](N)CS	-3.0
O=C(Cc1ccsc1)N1CCC2(CC1)N=C(COc1ccccc1)NC2=O	32.1
Cc1ccc(Sc2cncc3sc(C(N)=O)cc23)cc1	-64.8
Cc1cc(NC(=O)c2cc(Cl)sc2Cl)no1	-2.3
Cc1nccn1CC1CCCN(Cc2c(Cl)cncc2Cl)C1 (stereo not given)	1.2
COC(Cn1ccnc1-c1ccc(C)s1)c1cccs1 (stereo not given)	6.2
CCOC(=O)C1CCCN(C(=O)Cn2cccc2-c2nc(-c3ccc(C)cc3)cs2)C1 (stereo not given)	-12.1
CC(=O)NCCc1sc(-c2cccc(F)c2)nc1C	199.4
Next section:
SMILES	Tgondii IFNg
O=C(c1cc(C(F)(F)F)[nH]n1)N1C[C@@H]2C3CCC(CC3)[C@@H]2C1	-47.9
CC(=O)N1CCc2c(nc(N(C)C)nc2N2CCN(CCCO)CC2)C1	1.8
O=C(/C=C\n1cnc(-c2cc(C(F)(F)F)cc(C(F)(F)F)c2)n1)N1CC(F)(F)C1	-79.6*
COc1cccc(C(=O)Nc2ccc3c(c2)C(=O)N(C)[C@H]2CC[C@@H](CC(=O)N[C@H](C)c4ccccc4)O[C@H]2CO3)c1	-50.1
CC1c2cccn2CCN1C(=O)Cn1nnnc1N (stereo not given)	-1.2
Cc1cc(-c2nn(C)c(Cl)c2CN2CC[C@H](CO)[C@@H](O)C2)no1	35.5
Nc1nc2nc3nc(N)sc3cc2s1	-64.4
CN(C)CC1(O)CCN(C(=O)c2cc(=O)n(-c3ccccc3)[nH]2)C1 (stereo not given)	-28.3
Cc1cnccc1N1CCCN(c2cc(N3CCOCC3)nc(N)n2)CC1	-6.0
CSc1ccccc1NC(=O)C1CCN(S(=O)(=O)c2ccc(F)cc2)CC1	-7.0
Nc1ccc(-c2ccc(F)cc2Cl)cn1	18.6
Cc1nn(C)c(C)c1CN(C(=O)c1cc2ccccc2oc1=O)C1CC1	4.8
COc1ccc(C(=O)COc2ccc(F)cc2)c(O)c1	164.9
Oc1c(Br)cc(Br)c2cccnc12	-59.8
CC(C)(C(=O)N1CCC(c2ccccc2C(=O)O)C1)c1ccccc1 (stereo not given)	-30.2
COc1ccc(Cl)cc1S(=O)(=O)N1CCC2(CC1)Nc1cc(F)ccc1-n1cccc12	-28.1
O=C(N[C@@H]1C=C[C@H](CC(=O)N2CCC(Cc3ccccc3)CC2)O[C@H]1CO)c1cnccn1	10.1
CC(C)CS(=O)(=O)N1CCC2(CC1)[C@H]1CN(c3ncccn3)C[C@@H]1C(=O)N2C	4.4
CCC(=O)N1[C@@H](CO)[C@@H](c2ccccc2)C12CN(Cc1ccccc1Cl)C2	-36.5
COCCOC(=O)C(CC(=O)O)N1CCOCC1 (stereo not given)	52.9
Cc1ccc(C2c3[nH]c4ccccc4c3CCN2C(=O)c2ccc3c(c2)OCO3)cc1 (stereo not given)	-62.0
CCOC(=O)c1cccc(NC(=O)N2CCC3(CC2)c2cccn2-c2ccc(C)cc2N3CC)c1	-23.4
CCn1cc(S(=O)(=O)NC(Cc2ccsc2)c2cccnc2)c(C)n1 (stereo not given)	16.3
N#Cc1sccc1COc1ccc(Cl)cc1	160.5
O=C(C[C@H]1CC[C@@H]2NC[C@@H](O)COC[C@H]2O1)NCCc1ccncc1	-28.2
O=C(Nc1ccc(F)cc1F)C1CCN(C(=O)OCc2ccccc2)CC1	8.8
CCCS(=O)(=O)N1CCC2C1CCC(=O)N2c1cnn(C)c1 (stereo not given)	-35.8
CCOc1cccc(C2c3[nH]c4ccccc4c3CCN2C(=O)C2CCC2)c1 (stereo not given)	482.8
O=S(=O)(c1cccs1)N1CCC2(CC1)Nc1ccc(Cl)cc1-n1cccc12	-21.4
CC(=O)c1cc(CN2CCCC2c2nc3ccc(C)cc3[nH]2)cs1 (stereo not given)	16.1
O=C1CC(c2ccc(F)cc2)Cc2nc(NCC3CCCO3)ncc21 (stereo not given)	-3.2
Cc1nc(-c2ccccc2)c(C(=O)NCCCc2csc(N)n2)s1	0.8
COCCNC(=O)C[C@@H]1COC[C@H]2CN(S(C)(=O)=O)C[C@H]12	-1.2
Cn1nc(-c2cccs2)cc1C(=O)N1CCC(O)(c2ccccn2)CC1	9.5
O=C(Nc1ccccc1F)N1CCCCN2[C@H](CO)[C@@H](c3ccc(/C=C/c4ccccc4)cc3)[C@@H]2C1	-53.1
COc1ccc(CNc2nc(SCc3ccc(Cl)cc3)nc3ccccc23)cc1	-61.2

Overlap with the part before: four entries, then new ones.
SMILES	Tgondii IFNg
COCCNC(=O)C[C@@H]1COC[C@H]2CN(S(C)(=O)=O)C[C@H]12	-1.2
Cn1nc(-c2cccs2)cc1C(=O)N1CCC(O)(c2ccccn2)CC1	9.5
O=C(Nc1ccccc1F)N1CCCCN2[C@H](CO)[C@@H](c3ccc(/C=C/c4ccccc4)cc3)[C@@H]2C1	-53.1
COc1ccc(CNc2nc(SCc3ccc(Cl)cc3)nc3ccccc23)cc1	-61.2
CCc1ccccc1-c1cccc(-n2cnnc2)c1	-30.0
CN(CCc1ccccn1)C(=O)c1cc(COc2ccccc2)[nH]n1	6.3
CC(c1ccco1)N(C)Cc1ccc2cc(F)ccc2n1 (stereo not given)	6.0
COc1ccc(Cn2cc(C(=O)N(C)Cc3ccnc4ccccc34)nn2)cc1	-69.3
COC(=O)c1cc(NC(=S)NC(=O)c2ccc(Cl)cc2)cc(C(=O)OC)c1	6.3
Cc1ncc(-c2ccccn2)c(CN(C)S(=O)(=O)c2ccc3c(c2)oc(=O)n3C)n1	33.6
Cc1ccc(Nc2nc(C(=O)NCCc3cccs3)nc3ccccc23)cc1	-52.0
COCCN1C[C@@H]2CN(S(=O)(=O)c3cccs3)C[C@H]2C1=O	98.0
COc1ccc2oc(CNC(=O)C(C)n3ccnc3C(C)C)nc2c1 (stereo not given)	4.1
C[C@@H]1CN([C@H](C)CO)C(=O)c2cc(N(C)C)ccc2O[C@H]1CN(C)Cc1ccc(Oc2ccccc2)cc1	60.3
CCCc1c(-c2nc(-c3ccc(C(C)(C)C)cc3)no2)cnn1-c1ccccc1	-96.8*
O=C(Nc1ccc(F)cc1)c1c(O)c2cccnc2n(-c2ccc(F)cc2)c1=O	-37.7
CN1CCN(C(=O)C2CNCCOC2)CC1 (stereo not given)	-53.4
CCOc1ccc2nc(-c3nccn3CCOC)ccc2c1	14.6
CCC1CCCCN1C(=O)c1cc2cccnc2n(Cc2ccccc2)c1=O (stereo not given)	9.0
O=C(c1ccccc1)c1ccc2c3c(cccc13)CC2	23.0
O=C(O)Cc1nn(Cc2ccc(Br)cc2F)c(=O)c2ccccc12	-0.8
COc1cccc(-c2nc3c(s2)CN(C(=O)Nc2ccc(Br)cc2)CC3)c1	-35.8
O=C(Cc1ccccn1)N1CC(=O)N2[C@H](C1)[C@@H](c1ccc(C#CCC3CCCC3)cc1)[C@@H]2CO	-49.8
CO[C@H]1CN(C)C(=O)c2cc(NS(=O)(=O)c3ccc(Cl)cc3)ccc2OC[C@@H](C)N(C(=O)NC(C)C)C[C@H]1C	8.5
CCSCCN(C(=O)c1nnc2nc(C)cc(C)n12)C1CCCCC1	-3.2
Cc1ccc(-c2cc(C(=O)Nc3cc(C)nn3-c3ccc(F)cc3)no2)cc1	-8.3
COc1cccc(C(=O)N2CCc3c([nH]c4ccccc34)C2c2ccc(F)cc2)c1 (stereo not given)	i
COCc1nc(NCCN2CCc3ccccc32)c2cnn(C)c2n1	-3.2
Cc1cc(-c2cnc(C(C)C)nc2-c2ccc(CNC(=O)CCc3ccccc3)cc2)on1	76.3
Cc1ccc2c(c1C)-n1cccc1C1(CCN(C(=O)c3ccc(Cl)cc3)CC1)N2	12.3
Cc1nc(-c2ccc(F)cc2)sc1CCNC(=O)CC(C)C	139.4
O=C(Cn1c(=O)cc(-c2nc(C3CC3)no2)c2ccccc21)NCc1ccc2c(c1)OCO2	50.0
CC(C)CCNC(=O)[C@H](CC(C)C)NC(=O)[C@H]1O[C@@H]1C(=O)O	16.2&38.0
CC(=O)N1CCc2ncn(C(C)C)c2C1C(=O)N1CCN(c2ccccc2)CC1 (stereo not given)	-28.3
COC(=O)[C@@H]1C[C@@H](N(C)C)CN1C(=O)c1ccccc1-c1ncc[nH]1	11.7

Random excerpt: five records from the list
SMILES	Tgondii IFNg
O=C1NCC[C@]12CN(CC1CCOCC1)C[C@H]2c1ccccc1	0.6
Cc1cccc(-c2ncc(CNCCc3cn4nc(C)sc4n3)cn2)c1	-1.0
COc1cc(N2CCCC3(CCNC3=O)C2)ncn1 (stereo not given)	7.8
O=C(C[C@H]1CC[C@@H]2NC[C@@H](O)COC[C@H]2O1)NCCc1ccncc1	-28.2
COc1cccc(C(=O)Nc2ccc3c(c2)C(=O)N(C)[C@H]2CC[C@@H](CC(=O)N[C@H](C)c4ccccc4)O[C@H]2CO3)c1	-50.1

Source: PubChem BioAssay (Broad Institute)

Some of the compounds tested; the hit share may differ from the screen's.
